VDR inhibitor = vitamin D3 receptor (human) inhibition; VDR-SRC2-3 peptide fluorescence polarization, 2 h; Potency, µM, without a hit: max response, negative = inhibition, most hits filed as inhibitors; hit rate 0.93% among 400,000; active = well fitted inhibition curve with a large enough effect; inconclusive = small, poorly fitted or top-dose-only effect, or another doubt; inactive = no such curve, though single readings can be large or run the other way; also: series mostly up to about 120 µM
Target sequence (P11473 whole entry, looked up): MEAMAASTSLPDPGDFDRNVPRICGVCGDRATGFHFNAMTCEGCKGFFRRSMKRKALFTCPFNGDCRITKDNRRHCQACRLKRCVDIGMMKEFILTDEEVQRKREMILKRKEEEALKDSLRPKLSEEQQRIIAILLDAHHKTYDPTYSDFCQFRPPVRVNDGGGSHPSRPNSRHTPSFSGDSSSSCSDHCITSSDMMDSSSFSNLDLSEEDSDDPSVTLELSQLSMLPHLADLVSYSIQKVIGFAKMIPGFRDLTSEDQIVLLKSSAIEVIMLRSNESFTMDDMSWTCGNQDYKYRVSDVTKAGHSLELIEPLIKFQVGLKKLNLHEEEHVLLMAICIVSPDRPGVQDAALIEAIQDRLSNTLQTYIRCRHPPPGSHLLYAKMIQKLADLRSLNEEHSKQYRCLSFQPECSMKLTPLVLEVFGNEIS
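Fluorescence polarization assay of small-molecule disruption of VDR binding to coregulator peptide SRC2-3. Compounds and controls pin-transferred, then read after 2 h incubation at ambient room temperature.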
* hit, by the source's call; ? = inconclusive; & = joins results of further samples. % is scaled to controls: 0 for no effect and ±100 for the full control effect; potency is read from the fitted curve at half-maximal effect. These rows are one share of the data; the hit share may differ from the screen's.

Structure | VDR inhibitor
COc1cccc(NC(=O)C2CCN(c3cc(C)nc4c(-c5ccc(Cl)cc5)c(C)nn34)CC2)c1 | -22.2%
CCOC(=O)C(NC(=O)CC)(Nc1ccc(S(N)(=O)=O)cc1)C(F)(F)F (stereo not drawn) | -10.9%
COc1cccc(CNC(=O)CN2C(=O)c3ccccc3S2(=O)=O)c1 | 16.8%
O=C(NC1CCCC1)c1ccc(COCC(F)(F)F)o1 | 4.4%
O=C(CN1C(=O)COc2ccccc21)NCCCN1CCN(Cc2ccccc2)CC1 | -13.9%
O=C1NC(=S)N/C1=C/c1cccn1-c1ccc([N+](=O)[O-])cc1 | ?
COc1cc(NC(=O)COC(=O)C2CC2)c(C)cc1[N+](=O)[O-] | -5.6%
Cc1ccc(S(=O)(=O)N2CCCCC2CCNC(=O)C(=O)NCC2CCCO2)cc1 (stereo not drawn) | -1.8%
COc1ccc(OC)c(Nc2cc(C)nc3nc(C)nn23)c1 | -14.9%
N/C(=N\OC(=O)COc1ccc(Br)cc1Cl)c1cccnc1 | -21.5%
O=C(COc1cccc(F)c1)NNC(=O)Cc1ccc(S(=O)(=O)N2CCOCC2)s1 | 4.1%
CCN(C(=S)NC(=O)c1ccco1)c1cccc2ccccc12 | ?
CCn1cc(C(=O)NCc2ccc3c(c2)OCO3)c(=O)c2cc(F)c(N3CCN(C(=O)c4ccco4)CC3)cc21 | 6.9%
Cc1cc(C)c(NC(=O)COC(=O)c2ccc([N+](=O)[O-])s2)c(C)c1 | 7.8%
Cc1ccccc1N1CCN(CCCOc2ccc3c(C)cc(=O)oc3c2)CC1 | 11.2%
NC(=O)c1ccc(NC(=O)CSc2nnc(C3CCCCC3)n2N)cc1 | -5.8%
COc1cc2c(cc1OC)C(C)N(S(=O)(=O)c1ccc(Cl)nc1)CC2 (stereo not drawn) | 17.0%
C=CCSC1=C(C#N)C(c2cccc(OC)c2)CC(=O)N1 (stereo not drawn) | -17.6%
CC(C)[C@@H](CC(=O)N[C@@H]1CCCC[C@H]1C(=O)N[C@H](CC(=O)N[C@@H](CCC(=O)O)CC(=O)O)Cc1ccccc1)NC(=O)C[C@H](CO)NC(=O)[C@@H]1CNCC[C@H]1N | 7.0%
CCOC(=O)c1c(C)[nH]c(C2=NNC(=Nc3ccccc3)SC2)c1C | ?
COC(=O)c1ccc(OCC2c3cc(OC)c(OC)cc3CCN2C(=O)c2ccccc2C)cc1 (stereo not drawn) | 2.1%
N#CCCN(C(=O)Nc1ccccc1)C1CCCCC1 | -4.8%
COc1cc2c(cc1OC)C(C1C(=O)CC(C)(C)CC1=O)N(C(=O)CCl)CC2 (stereo not drawn) | -4.4%
COc1cccc(C(=O)N2CCN(S(=O)(=O)Cc3ccccc3)CC2)c1OC | 7.9%
O=S(=O)(NC1CC1)c1ccc(S(=O)(=O)N(Cc2ccccn2)C2CCCC2)cc1 | -10.0%
CCCCCCNC(=O)CC(NS(=O)(=O)c1ccc(OC)cc1)C(C)C (stereo not drawn) | -5.9%
CC(OC(=O)C1CCCCC1)C(=O)Nc1cccc([N+](=O)[O-])c1 (stereo not drawn) | 2.8%
CN(C)C(CNC(C(=O)Nc1ccc([N+](=O)[O-])cc1Br)c1ccccc1)c1ccccc1 (stereo not drawn) | 4.5%
O=C(Cc1cn2ccsc2n1)Nc1nc2c(s1)CN(Cc1ccccc1)CC2 | -13.0%
COc1ccc(C)cc1N(CC(=O)N1CCc2ccccc2C1)S(C)(=O)=O | -7.7%
CCOc1ccc(C(=O)OCC(=O)NCc2ccccc2)cc1OCC | -5.8%
CSc1nc2ncc(C(=O)O)c(N)n2n1 | -5.6%
O=C(N/C(=C\c1cccs1)C(=O)N1CCCCCC1)c1ccccc1 | -8.5%
CC(C)(C)OC(=O)N1Cc2ccccc2C[C@H]1C(=O)N1CCC[C@H]1C(=O)O | 5.9%
CCCn1c(SCC(=O)Nc2ccc3c(c2)OCO3)nc2c1c(=O)n(C)c(=O)n2C | 0.6%
CC(C)(C)NC(=O)NC(=O)COc1ccc(Br)cc1Br | -11.9%
CC1CCCC(C)N1C(=O)COC(=O)c1cc(Br)ccc1Cl (stereo not drawn) | 2.7%
CCOc1ccc(Br)cc1C(=O)N/N=C/c1cccc(C)n1 | 3.6%
COc1cccc(-c2nnn(CC(=O)NC3CCCC3)n2)c1OC | -4.7%
COc1ccc(CC(=O)Nc2cccc(S(=O)(=O)N3CCCCC3)c2)cc1 | 6.2%
CCCNC(=O)NS(=O)(=O)c1ccc(Cl)cc1 | 7.3%&-6.5%&-6.3%&9.6%
COc1ccc(/C=C2\SC(=O)N(CCC(=O)N3CCCCC3)C2=O)cc1OC | 1.3%
COc1ccc(CCNC(=O)c2cccc(S(=O)(=O)N3CCc4ccccc4C3)c2)cc1 | 7.2%
C[C@]12C(=O)N(c3cccc(Cl)c3)C(=O)N1[C@H]1c3ccccc3OC[C@@H]1[C@H]2c1ccccc1 | -2.4%
NC(=O)c1cc(-c2ccccc2)sc1NC(=O)CN1CCCCC1 | 4.3%
COc1ccccc1C(=O)Nc1ccc(Br)c2cccnc12 | -15.7%
CC(C(=O)c1c[nH]c(C(=O)N=CN(C)C)c1)c1ncc(C(F)(F)F)cc1Cl (stereo not drawn) | 13.8%
Cc1ncc([N+](=O)[O-])n1CC(=O)Nc1ccc(F)c(F)c1 | 0.9%
O=C(CSC1=NCCN1)Nc1cccc(C(F)(F)F)c1 | -9.6%
CCCN(CC(=O)Nc1ccccc1C)C(=O)C1CC(=O)N(Cc2ccccc2)C1 (stereo not drawn) | -23.3%
O=C(NCCc1ccccc1)c1cnc2ccccn2c1=O | 16.0%
CCNc1nc(N)nc(Oc2ccc(OCC(=O)OC)nn2)n1 | 7.6%
COc1ccc(OC)c(NC(=O)c2ccc(CN3CCc4ccccc4C3)cc2)c1 | -0.1%
Cc1nn(-c2nc(-c3ccc(F)cc3)cc(C(F)(F)F)n2)c(C)c1Cl | -27.0%
Cc1cc(NC(=O)CCCC(=O)N(CC(=O)NCCc2ccccc2)Cc2ccc(F)cc2)no1 | -1.5%
NC(=O)N/N=C/c1c(Sc2nnnn2-c2ccccc2)nc2ccccn2c1=O | -10.4%
Cn1c(O)c(/C=C2\C=Nc3ccccc32)sc1=Nc1ccc(C(=O)O)cc1 | -12.6%
CNC(=O)C(=O)N/N=C/c1cccnc1 | 9.4%
O=S(=O)(Nc1ccccn1)c1ccc(C(F)(F)F)cc1Cl | 14.1%
O=C(Nc1ccc(S(=O)(=O)N2CCOCC2)cc1)c1ccc(Br)o1 | 2.8%

The results go on:
Structure | VDR inhibitor
COc1ccc(C(=O)NCC(c2ccc3c(c2)OCO3)N2CCOCC2)cc1OC (stereo not drawn) | 3.3%
COc1ccc(C(CNC(=O)C(CC(C)C)NS(=O)(=O)c2ccc(C)cc2)N2CCOCC2)cc1 (stereo not drawn) | -15.6%
CCCc1nnc(NC(=O)CNc2ccc(F)cc2)s1 | 3.3%
Cc1ccc(CCNC(=O)c2ccc3c(c2)c(C)c(C)n3Cc2ccccc2)cc1 | 1.0%
CN(CC(=O)Nc1ccc(N2CCOCC2)cc1)C(=O)CSc1ccccc1F | -1.6%
O=C(C1CCCO1)N1CCN(Cc2c(O)ccc3ccccc23)CC1 (stereo not drawn) | 50.1µM*
CCOc1ccc(N(CC(=O)NC2CCCCC2)S(=O)(=O)c2c(C)noc2C)cc1 | ?
COc1cccc(-c2ccc(NC(=O)C3CCCN(Cc4nccn4C)C3)cc2)c1 (stereo not drawn) | -1.1%
CN(Cc1nccn1C)C(=O)c1ccc(OC2CCN(CCc3ccccc3)CC2)cc1 | -28.0%
Cc1ccc(-n2c3c(c(=O)[nH]c2=O)C(NC(=O)c2ccccc2C)(C(F)(F)F)C(=O)N3)cc1 (stereo not drawn) | 1.7%
COc1cc(C)c(-c2[nH]ncc2-c2csc(C)n2)c(O)c1 | -12.8%
Cc1ccc(C(C)C)c(OCC(=O)Nc2ccc(O)c(-c3nc4cc(Cl)ccc4o3)c2)c1 | -24.5%
CCOc1ccc(C2c3c(oc4ccccc4c3=O)C(=O)N2Cc2ccc3c(c2)OCO3)cc1 (stereo not drawn) | -23.6%
CCCCN(C)C(=O)c1nc2ccccn2c1CN1CCN(c2ccccn2)CC1 | 1.0%
CC(=O)c1ccc(OCC(=O)N(C)CC(=O)Nc2ccc(N3CCOCC3)cc2)cc1 | -3.7%
CCC(=O)Nc1nnc(SCCN2CCOCC2)s1 | -16.7%
CN(C)c1ccc(S(=O)(=O)N2CCCCC2)cc1NC(=O)CN1C(=O)NC2(CCCC2)C1=O | -6.4%
CCCCc1nn(-c2cc(Cl)ccc2OC)c2c1C(=O)CC(C)(C)C2 | -8.1%
Cc1ccc(OCC(=O)Nc2ccncc2)cc1 | 8.9%
CN1CCCC2(CCN(C(=O)c3cnccn3)CC2)C1 | -1.3%
CCOC(=S)SCC(=O)N1CCc2ccccc2C1C1C(=O)CC(C)(C)CC1=O (stereo not drawn) | 3.8%
O=C(NCC(=O)N(Cc1cccs1)C(C(=O)NC1CCCC1)c1cccnc1)c1ccco1 (stereo not drawn) | 3.8%
CN1C(C(=O)NCCc2cccs2)CC2Cn3c(nc4cc(Cl)c(Cl)cc43)C21 (stereo not drawn) | -5.8%
COc1ccc(/C=N/NC(=O)c2cccc(COCC(F)(F)C(F)F)c2)cc1 | -20.6%
Cc1ccc(C)c(N2CCN(C(=O)CCc3nc(-c4cccc(Br)c4)no3)CC2)c1 | -20.6%
COc1ccc(CCn2cnc(=O)c(C#N)c2C)cc1OC | -11.4%
CCOC(=O)NN=C1CN(S(=O)(=O)c2ccc(C)cc2)C1 | -28.5%
COC(=O)c1ccc2c(c1)N(CC(=O)Nc1ccc(C)c(C)c1)C(=O)c1ccccc1S2 | 8.2%
C#CCOCCOCCOCCNc1nc(N2CCN(C(=O)[C@H](CCC(=O)O)n3cc(C(N)CO)nn3)CC2)nc(N2CCN(C(=O)[C@H](Cc3ccc(O)cc3)n3cc(C(N)[C@H](C)CC)nn3)CC2)n1 (stereo partly drawn) | -1.9%
CCCCC(=O)Nc1cc(C(=O)NCCc2ccccc2)ccc1Cl | -8.1%

Taken from above:
COC(=O)c1ccc2c(c1)N(CC(=O)Nc1ccc(C)c(C)c1)C(=O)c1ccccc1S2 | VDR inhibitor = 8.2%
COc1ccc(C(=O)NCC(c2ccc3c(c2)OCO3)N2CCOCC2)cc1OC (stereo not drawn) | VDR inhibitor = 3.3%

(continued)
| SMILES | VDR inhibitor |
| --- | --- |
| N#CC1=C(N)Oc2cc(O)ccc2C1c1cccnc1 (stereo not drawn) | -9.2% |
| CC(=O)c1c(N2CCN(CCO)CC2)nc(=S)n(-c2ccccc2)c1C | -12.5% |
| Cc1nc(CS(=O)(=O)c2ccc(Cl)cc2)cc(Sc2ccc(Cl)cc2)n1 | 3.7% |
| N#Cc1nc(N2CCCCC2)nc(N2CCCCC2)n1 | -8.6% |
| Cc1cc(C(=O)NCc2ccccc2Cl)c2ccccc2n1 | 0.1% |
| COc1cc(Cl)c(C)cc1NC(=O)CCn1cnc2onc(-c3ccc(F)cc3)c2c1=O | 2.8% |
| COc1ccc(NC(=O)CSc2ccc(C)cc2)cc1 | 14.5% |
| N=c1n(Cc2ccc(Cl)cc2)c2ccccc2n1CC(O)COc1ccccc1 (stereo not drawn) | 5.4% |
| O=C(Nc1ccccc1)c1cnc[nH]1 | ? |
| Cc1ccc(-c2nc(C(=O)Nc3cccc(C#N)c3)c3n2CCCCC3)cc1 | -1.0% |

VDR inhibitor: what is marked active above.
| SMILES | VDR inhibitor |
| --- | --- |
| O=C(C1CCCO1)N1CCN(Cc2c(O)ccc3ccccc23)CC1 (stereo not drawn) | 50.1µM* |

(further entries)
| SMILES | VDR inhibitor |
| --- | --- |
| COc1cc2c(C)c3c4c(cc(OC)c(OC)c4c2cc1OC)CCN3C | ? |
| COc1ccc(NC(C)=O)cc1NS(=O)(=O)c1ccc2c(c1)OCCO2 | 3.2% |
| CCc1ccc(OCc2n[nH]c(=S)n2C(C)CCCC(C)C)cc1 (stereo not drawn) | -10.5% |
| Cn1c2ccccc2c2cnn(CC(=O)O)c(=O)c21 | -3.6% |
| CSc1cccc(NC(=S)N2CCC(N(C)C3CCCCC3C)CC2)c1 (stereo not drawn) | 12.1% |
| COc1ccc(CNc2nc(-c3c(C)noc3C)nc3ccccc23)c(OC)c1 | -8.5% |
| COc1ccc(N(CC(=O)Nc2cccc(Cl)c2)S(=O)(=O)c2c(C)[nH]c(=O)[nH]c2=O)cc1 | -20.4% |
| COc1ccc(CCNC(=O)Cc2cccs2)cc1 | 13.3% |
| COc1ccc(CC(=O)N(Cc2cc3cc(OC)ccc3[nH]c2=O)C(C)C)cc1 | 14.5% |
| NNc1nnc(-c2ccccc2)c(-c2ccccc2)n1 | -15.1% |
| Brc1cc(Br)c2nc3c(cc2c1)CCC3 | 11.5% |
| Cc1n[nH]c(=O)c2ccccc12 | 3.9% |
| CC(C)C(NC(=O)C1CCCCC1)C(=O)Nc1ccncc1 (stereo not drawn) | 8.3% |
| Cc1ccc(/C=C2/SC(=S)N(CCC(=O)N3CCN(C)CC3)C2=O)cc1 | -16.3% |
| CC(NC(=O)CSc1nc2ccccc2c(=O)n1CCCO)c1ccccc1 (stereo not drawn) | -1.2% |
| CC(=O)c1cccc(NC(=O)N2CCC(NC(=O)c3ccco3)CC2)c1 | 3.9% |
| CN(Cc1ccc(F)cc1)C(=O)c1ccc(NS(=O)(=O)c2ccccc2)cc1 | -24.2% |
| CCOc1ccccc1NC(=O)CSc1nnc(-c2cccnc2)o1 | -37.2% |
| c1ccc(-c2noc(-c3ccc4c(c3)OCO4)n2)nc1 | 11.8% |
| Cc1ccc(C)c(NC(=O)Cn2nnc(C(=O)NCCc3ccccc3)c2N)c1 | -0.8% |
| CCOC(=O)c1c(SC)n(-c2ccccc2)c(=S)n(-c2ccccc2)c1=O | 11.8% |
| O=C(CSc1ccccc1F)Nc1ccc2c(c1)OCO2 | 1.0% |

4 records picked at random from those above, as already listed:
| SMILES | VDR inhibitor |
| --- | --- |
| CCOC(=O)c1c(SC)n(-c2ccccc2)c(=S)n(-c2ccccc2)c1=O | 11.8% |
| O=C(CSc1ccccc1F)Nc1ccc2c(c1)OCO2 | 1.0% |
| Brc1cc(Br)c2nc3c(cc2c1)CCC3 | 11.5% |
| c1ccc(-c2noc(-c3ccc4c(c3)OCO4)n2)nc1 | 11.8% |

Bioassay records (PubChem)
